Assay outcomes: PubChem BioAssay, ICCB-Longwood Screening Facility, Harvard Medical School
MgrA DNA FP: modulators of Staphylococcus aureus MgrA DNA binding; fluorescence polarization; inhibition, %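 (about 10 µg/mL by stock and volumes)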; 84,000 compounds, 0.13% hits; AID 602314;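 active means above 50% in either of two replicates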;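 further: 0% = protein plus DNA without compound and 100% = DNA alone without protein; higher means less MgrA bound to DNA so lower polarization; one replicate is shown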
S aureus helic: blocks Staphylococcus aureus DNA helicase | 120,000 compounds, 0.05% hits | inhibition, %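 (tested at about 80 µM)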 | purified S. aureus helicase, fluorescence unwinding assay; about half of the hits fall short of the stated cut;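 active means both duplicates at 50% or more, or one of them with a favoured structure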;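 further: 0% = mean of negative control wells and 100% = mean of positive control wells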
Numbers without * were called inactive; / = no result given. Some of the compounds tested (hit frequency here may not be typical).

Start of the listing, in advance (two entries):
SMILES	MgrA DNA FP	S aureus helic
CN1/C(=C2/SC(=O)N(Cc3ccccc3)C2=O)Sc2ccccc21	-0.6	7
Clc1cc(Cl)cc(CN2CCSCC2)c1	-1.9	/

The whole of this part, from the start:
SMILES	MgrA DNA FP	S aureus helic
CN1/C(=C2/SC(=O)N(Cc3ccccc3)C2=O)Sc2ccccc21	-0.6	7
Clc1cc(Cl)cc(CN2CCSCC2)c1	-1.9	/
CCc1ccccc1-n1nnnc1SC1OC(=O)c2ccccc21 (centres undefined)	/	1
CCN(CC)C(=O)C(Cc1ccccc1)N1C(=O)C2C3C=CC(C3)C2C1=O (centres undefined)	/	-5
O=c1ccc2ccc(OCc3ccc(Cl)cc3)cc2o1	/	15
Cc1ccc(Sc2c(C)[nH]n(-c3ccccc3)c2=O)cc1	/	-27
NC(=O)c1ccccc1NC(=O)Cc1ccccc1	-5.2	6
CN(C)C(=O)N1CCN(S(=O)(=O)c2ccccc2)CC1	2.2	-2
COc1ccccc1N=C=S	/	-8
CC1CCN(C(=S)NCCc2ccccc2)CC1	/	3
Cc1nnsc1C(=O)NC1Cc2ccccc2C1	-3.5	/
c1ccc(CN2CCN(c3nc(N4CCOCC4)c4ccccc4n3)CC2)cc1	-1.0	9
Cn1c(C(=O)NCC2(c3ccccc3)CCCC2)cc2c(=O)n(C)c3ccccc3c21	-0.6	-15
C=CCn1c(=O)/c(=C2/Sc3ccccc3N2CC)s/c1=C1/C(=O)NN=C1C	7.6	-11
Cc1ccc(C(C(=O)NCc2ccccc2)N(Cc2ccco2)C(=O)Cn2nnc3ccccc32)cc1 (centres undefined)	-2.2	7
CCCN(Cc1cc2cccc(C)c2[nH]c1=O)S(=O)(=O)c1ccccc1	/	-17
O=C(COC(=O)Cc1ccc(S(=O)(=O)N2CCOCC2)s1)Nc1ccccc1	/	-11
O=C(OC/C=C/c1ccccc1)c1ccc(S(=O)(=O)N2CCOCC2)cc1	/	-13
O=C(O)c1ccc(Br)cn1	/	9
COc1ccc(N2C(=NC(C)=O)SC3CS(=O)(=O)CC32)cc1 (centres undefined)	-2.1	4
c1ccc(CN2CCC(NCc3nnc(-c4ccccc4)o3)CC2)cc1	/	-7
COc1ccc(S(=O)(=O)Cc2ccc(C(=O)N3CCOCC3)o2)cc1	2.5	19
N=C(N)Cc1c(Cl)cccc1Cl	3.5	/
CS(=O)(=O)c1ccc(Cl)c(NC(=O)c2cncn2-c2ccc(F)cc2)c1	/	-5
CC(Sc1nnnn1C)C(=O)Nc1ccccc1 (centres undefined)	/	4

Seven entries already listed, arranged by number of heavy atoms, low to high.
SMILES	MgrA DNA FP	S aureus helic
O=C(O)c1ccc(Br)cn1	/	9
COc1ccccc1N=C=S	/	-8
Clc1cc(Cl)cc(CN2CCSCC2)c1	-1.9	/
CN(C)C(=O)N1CCN(S(=O)(=O)c2ccccc2)CC1	2.2	-2
CN1/C(=C2/SC(=O)N(Cc3ccccc3)C2=O)Sc2ccccc21	-0.6	7
O=C(OC/C=C/c1ccccc1)c1ccc(S(=O)(=O)N2CCOCC2)cc1	/	-13
Cc1ccc(C(C(=O)NCc2ccccc2)N(Cc2ccco2)C(=O)Cn2nnc3ccccc32)cc1 (centres undefined)	-2.2	7

(listing goes on)
SMILES	MgrA DNA FP	S aureus helic
COc1ccc(C(C[N+](=O)[O-])c2c(N)n(C)c(=O)n(C)c2=O)cc1 (centres undefined)	-1.7	/
COc1cccc2cc(C(=O)NC(C)=O)c(=Nc3ccc(Cl)cc3Cl)oc12	0.1	/
O=C(Nc1nc2ccc(Br)cc2s1)c1c(O)c2ccccc2[nH]c1=O	1.3	/
S=C1NCCN1Cc1ccccc1	1.4	/
O=C(N/C(=C/C=C/c1ccccc1)C(=O)N1CCCCC1)c1ccccc1	4.3	8
Cc1cc(NC(=O)C2CC=CCC2C(=O)O)no1 (centres undefined)	/	30
O=C(Cc1ccccc1)NC1CCN(C(=O)c2c(Cl)cccc2Cl)CC1	2.0	/
CCSCCOC(=O)C1=C(C)NC2=C(C(=O)CC(c3ccc(OC)cc3)C2)C1c1cccc(O)c1 (centres undefined)	0.1	/
CCOc1cc(C#N)c(NC(=O)c2ccc(OC)c(S(=O)(=O)N3CCC(C)CC3)c2)cc1OCC	/	-8
Cc1[nH]c2ccccc2c1C(=O)CSC(=S)N(C)C1CCCCC1	4.9	7
CC1CCc2sc(NC(=O)C(C)C)c(C(N)=O)c2C1 (centres undefined)	/	3
CN(C)/C=C/C=C1\N=C(c2ccccc2)OC1=O	-3.6	/
Cc1cc(C)n(-c2ccc(N3CCC(C)CC3)nn2)n1	0.2	/
CCCCN1COc2ccc3c(C)cc(=O)oc3c2C1	-0.6	-17
CCCc1nnc(NC(=O)CSc2nc(C)cc(C)n2)s1	/	-13
CCOC(=O)C1=C(Nc2ccccc2)OCC1=O	-5.5	-3
CN(C(=O)CSc1ccc(F)cc1)C1(C#N)CCCCC1	/	15
N#Cc1ccc(-c2ccncn2)cc1	-1.7	2
Cc1cc(C)c2c(CC(=O)Oc3ccc(Cl)cc3)coc2c1	-0.6	3
CCOC(=O)C1=C(C)NC(SCc2cc(=O)[nH][nH]2)=C(C#N)C1c1cccs1 (centres undefined)	0.8	13
C=CCc1cccc(C=Nc2ccc(Br)cc2)c1O	/	2
C/C(=N/O)c1ccc(N)cc1	-3.0	0
Cc1ccc2c(C(=O)CNc3nccs3)c(C)[nH]c2c1	/	12
CCOC(=O)N1CCN(CC2=CCC3CC2C3(C)C)CC1 (centres undefined)	-1.4	-9
O=C(c1cccc(N2C(=O)C3CC=CCC3C2=O)c1)N1CCc2ccccc2C1 (centres undefined)	/	15
Next records follow.
SMILES	MgrA DNA FP	S aureus helic
O=c1c2c3n(nnc-2nn1-c1ccccc1)CCC3	/	20
Cc1oc(-c2cccs2)nc1CSc1nc2ccncc2[nH]1	-1.1	-1
O=C(C1=COCCO1)N1CCN(c2ccccc2)CC1	/	12
CCc1cc2c(N3CCN(Cc4nc5ccccc5[nH]4)CC3)ncnc2s1	1.1	/
CCCN1CNC(=S)N(c2cc(C)ccc2C)C1	0.1	-2
O=C(Nc1nc2ccccc2c(=O)s1)c1ccccc1	-0.1	/
CCCN(CCC)S(=O)(=O)c1ccc(C(=O)Nc2ccccc2)cc1	-1.2	-12
CCOC(=O)c1ccc(-n2c(C)cc(/C=C3\C(=O)NC(=S)N(c4ccccc4)C3=O)c2C)cc1	-0.7	/
COC(=O)c1c(C)oc2ccc(N(C(C)=O)S(=O)(=O)c3ccc(OC)cc3)cc12	/	-4
Cc1ccc(CSCCC(=O)NC2CCCC(C)C2C)cc1 (centres undefined)	-3.5	7
CCCN(c1ccccc1C(=O)O)S(=O)(=O)c1ccc2c(c1)n(C)c(=O)n2C	-2.0	-7
CC(C)OP(=O)(c1ccccc1)c1ccccc1	0.0	7
Fc1cnc(N2CCc3ccccc32)nc1N1CCc2ccccc21	-1.4	11
CCN(CC)c1nc(-c2ccc(F)cc2)cc(C(F)(F)F)n1	1.6	1
O=C(O)CCCn1cc(NC(=O)Cc2ccccc2)cn1	0.2	2
COc1ccc(-c2nc3ccccc3c(=O)[nH]2)cc1OC	/	34
O=C(CN1CC(=O)Oc2ccccc21)OCC(=O)c1ccc(F)cc1	5.2	-2
CCC(C)Cn1c(C(C)C)nc2ccccc21 (centres undefined)	0.3	7
CCOc1ccccc1N(C)S(=O)(=O)c1c(/C=C/N(C)C)noc1C	/	-1
Cc1[nH]c2ccc(-c3nnc(SCC(=O)N4c5ccccc5CCc5ccccc54)o3)cc2c1C	0.1	21
Cc1ccc(NC(=O)CC2SC(=O)N(CN3CCCCC3)C2=O)cc1 (centres undefined)	/	5
CCn1nnc2cc(C(=O)N(C3=NC(C)CS3)c3ccc(Cl)cc3)ccc21 (centres undefined)	/	19
COc1ccc(NC(=O)CC2C(=O)N(c3ccccc3)C(=O)N2C(C)C)cc1 (centres undefined)	-2.6	6
CCCS(=O)(=O)N1CCN=C1SCc1ccccc1	/	31
N#CCOC(=O)c1c2c(nc3ccccc13)CCCC2	/	-20
Following part.
SMILES	MgrA DNA FP	S aureus helic
OC(Cc1ccccc1)(c1ccccc1)c1ccccc1NC(=S)NC1CC2C=CC1C2 (centres undefined)	-0.6	/
CC(O)CC#CCN1CCCC(c2cccnc2)C1 (centres undefined)	/	0
CCOC(=O)Cn1nnnc1C(CC)N(Cc1cccnc1)Cc1cc2cc(C)ccc2[nH]c1=O (centres undefined)	0.6	17
CN(C(=O)Cn1nnc2ccccc2c1=O)C1CCCCC1	-14	18
CS(=O)(=O)N1N=C(c2cccs2)CC1c1ccccc1F (centres undefined)	-0.4	11
CC(Sc1nnnn1C)c1ccccc1Cl (centres undefined)	/	33
CCOC(=O)c1ccc(NC(=O)C2CC(=O)N(Cc3ccccc3)C(=Nc3ccccc3)S2)cc1 (centres undefined)	0.2	/
CCC(Sc1nnc2sc3ccccc3n12)C(=O)O (centres undefined)	0.2	4
N#CNC=Nc1cc(Cl)cc(Cl)c1	4.9	/
CC(Sc1nc2ccccc2n1C)C(=O)N(C)c1ccccc1 (centres undefined)	/	7
COc1ccc(C2NC(=O)NC(C)=C2C(=O)OCCSc2ccccc2)c(OC)c1 (centres undefined)	2.1	/
CC(=O)N(Cc1ccc(F)cc1)Cc1nc2ccccc2c(=O)[nH]1	-0.6	19
CCNC(=O)C1=C(C)C(=O)OC12CCN(S(=O)(=O)CC)CC2	/	9
CC1CCCCC12NC(=O)N(CN1CCN(S(=O)(=O)c3ccc4c(c3)OCCCO4)CC1)C2=O (centres undefined)	/	21
O=C(CCNc1ccc(Oc2ccccc2)cc1)c1ccco1	-0.8	10
CCOC(=O)c1cc(-c2ccc(C#N)cc2)nn1-c1ccc(S(N)(=O)=O)cc1	/	7
Cc1nc(SCCCSc2n[nH]c(C)n2)n[nH]1	-3.4	13
CCOc1ccc(OCC)c(C2C(Cc3ccccc3)N3c4ccccc4C=CC3C2(C#N)C#N)c1 (centres undefined)	-1.2	-3
COc1ccccc1C1CCN(S(=O)(=O)c2cc(Cl)cc(Cl)c2)CC1	-1.5	/
CC(C)OC(=O)CCCN1C(=O)c2ccc(N)cc2C1=O	/	-2
C=CCN(C(=O)C1CCCC1)c1nc2c(s1)CCCC2	/	-8
O=c1[nH]ncn2c1c(-n1cccc1)c1c3c(sc12)CCCC3	/	13
CCSc1nc(-c2ccc(Cl)cc2)c(C#N)c(=O)n1CC	-2.1	25
CCOc1ncccc1C(=O)N1CCSC1=NCc1ccccc1	/	0
Cc1csc(NC(=O)CN(C)S(=O)(=O)c2cccc3cccnc23)n1	/	2

Nothing new here: entries from further up.
SMILES	MgrA DNA FP	S aureus helic
C=CCN(C(=O)C1CCCC1)c1nc2c(s1)CCCC2	/	-8
O=c1[nH]ncn2c1c(-n1cccc1)c1c3c(sc12)CCCC3	/	13
CCSc1nc(-c2ccc(Cl)cc2)c(C#N)c(=O)n1CC	-2.1	25
CCOc1ncccc1C(=O)N1CCSC1=NCc1ccccc1	/	0
Cc1csc(NC(=O)CN(C)S(=O)(=O)c2cccc3cccnc23)n1	/	2

In a second layout: results already given
compound,MgrA DNA FP,S aureus helic
CCSc1nc(-c2ccc(Cl)cc2)c(C#N)c(=O)n1CC,-2.1,25
CN(C(=O)Cn1nnc2ccccc2c1=O)C1CCCCC1,-14,18
O=C(CCNc1ccc(Oc2ccccc2)cc1)c1ccco1,-0.8,10

Other entries:
SMILES	MgrA DNA FP	S aureus helic
CCCOc1ccc(C2NC(=O)NC(C)=C2C(=O)OCCOc2ccccc2)cc1OC (centres undefined)	-0.2	/
CCOC(=O)Nc1ccc(N2C(=O)C3C4C=CC(C4)C3C2=O)cc1 (centres undefined)	/	11
CCOC(=O)C1=C(C)NC(C)=C(C(=O)OCC)C1C(=O)OCC(=O)N1CCCc2ccccc21	/	-5
COc1ccc(Nc2nc(N3CCN(CCO)CC3)nc3c2cnn3C)cc1Cl	-5.1	6
O=C(CO/N=C/c1cccs1)N1CCN(c2ccccc2)CC1	/	-2
O=C(CC1CCCC1)Nc1ccc(S(=O)(=O)C(F)F)cc1	/	26
CCCC1=NN(c2nc3ccccc3s2)C(=O)/C1=C/N(C)C	1.4	17
Cc1cccc(CSc2ncnc3nc[nH]c23)c1	/	23
COc1ccccc1NC(=S)N(C)CCO	/	8
CCC(C(=O)NC1CCCC1)N(C(=O)Cn1nnc(-c2cccs2)n1)c1cnc2ccccc2c1 (centres undefined)	-37	14
CCc1ccc(NC(=O)c2ccc3c(Cl)c4c(nc3c2)CCC4)cc1	-1.0	13
c1ccc2c(c1)Nc1nc3ccccc3nc1N2	-0.8	6
NC(=O)C1CCN(Cc2c(O)ccc3ccccc23)CC1	/	5
COC(=O)c1ccc(NC(=O)C2C3CCC(C3)C2C(=O)O)cc1 (centres undefined)	0.7	8
O=C(Nc1cccc2nsnc12)c1ccc(-c2cccc(Cl)c2)o1	/	-3
CCOC(=O)c1oc2ccccc2c1CO	4.3	10
CCNC(=O)c1c(-c2ccccc2)noc1C	-0.5	/
CSc1ccc(-c2nc(CSCC(=O)NC3CC3)c(C)o2)cc1	/	4
Cc1ccc(Sc2c(-c3ccccc3)nc3ncccn23)cc1	-2.2	15
N#Cc1ccccc1CN1C(=O)c2cccc3cccc1c23	/	-1
COC(=O)c1ccccc1N/C=C(\C#N)c1nc2ccccc2[nH]1	-0.3	8
Cc1ccc(NCc2ccc(Cl)nc2)c(NCc2ccc(Cl)nc2)c1	0.9	1
N#C/C(=C(/O)CCN1C(=O)c2ccccc2C1=O)c1nc2ccccc2[nH]1	0.6	12
COC(=O)c1c(C)nc2nonc2c1N	1.3	4
O=C(O)CNC(=O)c1cc(-c2ccc(Cl)cc2)nc2ccccc12	0.6	-10
